Mtb hypoxia inh = PubChem AID 1159583. M. tuberculosis hypoxia-regulated fluorescent reporter, fluorescence. fluorescence inhibition, % (no concentration beside the values). actives 0.1% (n = 300,000);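 active = 35 to 45% if threefold the growth effect, above 45% if 1.5-fold the growth effect; inactive = the rest, general growth blockers included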;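 also: wells of about 50 µL received 100 nL stock; 0% = vehicle wells and 100% = reference inhibitor wells; whole bacteria with a GFP reporter of the hypoxia response; strong numbers were not always called active; many hits fall short of the cut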
Autofluor counter = flagged as autofluorescent in microsphere protease counterscreen; compound autofluorescence counterscreen, microsphere flow cytometry; stronger effect = higher value; fluorescence intensity (concentration not given with the values); actives 3.1% (n = 360,000); AID 624483;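 active = at least 3 SD above the mean of all compounds, about 16000 in these data; inconclusive = too few beads counted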;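 also: 100 nL of 1 mM stock went into each well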
Sa RN4220 lethal = growth inhibition of S. aureus RN4220, primary screen, OD600; inhibition, % (test concentration not listed); actives 0.33% (n = 330,000); 16 h;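 active = z-score of -3 or lower and OD600 up to 0.18 on both plates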;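 also: plate controls were untreated cells for no effect and reference antibiotic for full effect; stock transfer was 100 nL into about 80 µL; one replicate is shown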
PrP 5UTR inh = inhibition of PrP 5' UTR reporter expression; cell-based PrP 5' UTR mRNA reporter, plate reader; inhibition, % (test concentration not listed); actives 0.35% (n = 340,000); AID 488862, 2010;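 active = every replicate at 50% or more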;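 also: 0 = median of the neutral control wells; tested in H4 reporter cells; numbers are from one replicate; inactives centre near -14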
ugtP null kill = growth inhibition of ugtP-null S. aureus, primary screen, RN4220 ugtP deletion, OD600; 16 h; some inactives read as strong as hits; growth inhibition, % (no concentration beside the values); actives 0.54% (n = 330,000); AID 1259309, 2017;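 active = z-score under -3 and OD600 up to 0.15 on both plates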;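 also: plate controls were untreated wells for no effect and antibiotic for full effect; wells of about 80 µL received 100 nL stock; the first replicate is given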
BJeLR lethal = MLPCN primary cell-based screen for lethality selective to Ras in HRASV12 cells; BJeLR (HRASV12) viability, CellTiter-Glo ATP luminescence, 48 h; reference of the scale not given here; inhibition, % (concentration not given with the values); actives 0.17% (n = 300,000);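 active = replicate mean above 50%; inconclusive = above 50% but judged a plate artefact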;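 also: 50 nL library stock added to about 25 µL; numbers are from one replicate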
Mtb hypoxia inh growth = second read-out of Mtb hypoxia inh, no call of its own (marks repeat the call); growth inhibition, %; measured here: M. tuberculosis growth (absorbance);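 0% = vehicle and 100% = reference antibiotic; read after six days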
Active calls of the source: *; u = inconclusive; x = not tested or not shown; & = joins results of further samples.

#	smiles	Autofluor counter	Sa RN4220 lethal	Mtb hypoxia inh	ugtP null kill	Mtb hypoxia inh growth	BJeLR lethal	PrP 5UTR inh
1	O=C(Nc1ccc(Oc2nnc(-c3ccccc3)c3ccccc23)cc1)c1ccccc1	2182	0.4	14	-18	8	5	-26
2	CC(C)C(NC(=O)c1ccc(C(C)(C)C)cc1)C(=O)Nc1cccc(S(N)(=O)=O)c1 (stereo not given)	4574	0.0	-2	3	5	-23	-79
3	Cc1ccccc1C=NNC(=O)c1ccccc1-n1cccc1	x	15	3	19	5	x	x
4	CN(C)CCCOC(=O)COc1ccc(C(C)(C)C)cc1	2713	6.4	6	2	4	-5	-9
5	CN(C)CCN(Cc1cc2cc3c(cc2[nH]c1=O)OCO3)C(=S)NCc1ccco1	3262	4.2	16	5	10	3	-31
6	COc1ccc(CCNC(=O)Nc2cccc([N+](=O)[O-])c2)cc1OC	4360	x	x	x	x	0	-27
7	FC(F)(F)c1nnc(-c2ccccc2)nc1N1CCCC1	3140	6.1	7	17	8	-5	-5
8	O=C(NC(=S)NCCOCc1ccc(Cl)cc1)c1cccnc1	2547	2.4	19	4	7	8	-15
9	O=C(Cn1cnc2scc(-c3ccc(Cl)cc3)c2c1=O)N1CCOCC1	6068	0.6	7	0	-9	3	-65
10	Cc1ccc(OCCOc2cccc(C=NNC(N)=O)c2)cc1	x	0.4	15	1	5	x	x
11	CC(C)(C)OC(=O)N1CCC(C(=O)N2CCC[C@H]2C(=O)O)CC1	20337*	1.6	1	-1	16	x	-20
12	Cc1nc(-c2ccccc2)sc1C1(C)CC(c2cccnc2)=NO1 (stereo not given)	x	3.3	11	-21	21	2	x
13	CC1(C)Nc2cccc3cccc(c23)N1	3600	2.7	11	-1	11	x	-1
14	CC(C)N(C(=O)CSc1nc2ccccc2c(=O)[nH]1)C(C)C	4622	3.1	5	1	-4	3	-11
15	CCOC(=O)C1C2COc3cc(OC)ccc3C2N2C(=O)N(c3cccc(F)c3)C(=O)[C@]12C (stereo not given in full)	x	9.5&3.6	1&0	16&2	2&9	x	x
16	O=C(OCc1ccccc1)/C(=C/c1cccc(Br)c1)NC(=O)c1ccco1	4764	-3.0	12	11	-33	-20	-11
17	CC1(C)C2CCC1(CS(=O)(=O)Nc1ccc(S(=O)(=O)N3CCCCC3)cc1)C(=O)C2 (stereo not given)	8828	7.7	9	8	6	-1	3
18	CC1(C)CC(NC(=O)COc2ccc(Cl)cc2Cl)CC(C)(C)N1	5710	0.5	-8	3	-2	-1	-14
19	C[N+]1(CC(COCc2ccccc2)OC(=O)Cc2ccccc2)CCOCC1 (stereo not given)	2053	4.8	11	6	5	-3	-16
20	Cc1nnc(SCC(=O)Nc2sc3c(c2C(N)=O)CCC(C)C3)[nH]c1=O (stereo not given)	10021	2.5	3	8	2	x	-11
21	CCCS(=O)(=O)N1CCCC(C(=O)NC2CCCC(C)C2C)C1 (stereo not given)	3070	14	-3	5	3	-7	86*
22	CC(C)CN(C(=O)C1CSC2(C)CCC(=O)N12)c1c(N)n(Cc2ccccc2)c(=O)[nH]c1=O (stereo not given)	5628	0.9	2	3	7	-13	-15
23	COc1ccc(CN(C)C(=S)Nc2ccc(OC(F)F)cc2)cc1	4819	1.0	4	8	3	7	-8
24	O=[N+]([O-])/C(C(=C(Cl)Cl)N1CCN(Cc2ccccc2)CC1)=C1\NCCN1Cc1ccc(Cl)nc1	4465	2.1	6	0	-1	-3	-23
25	O=C(N/N=C/C(Cl)=C/c1ccc([N+](=O)[O-])cc1)C(=O)Nc1ccc(C(=O)O)cc1	5497	x	x	x	x	-1	-7
26	Cc1ccc(Cl)cc1NC(=O)CCn1cccc1	3107	3.7	22	1	13	-12	-7
27	COc1cc(C(=O)OCCCc2cc3ccccc3c(=O)o2)cc(OC)c1OC	4075	-4.8	10	2	4	x	-13
28	O=C(Nc1ccc(N2CCOCC2)cc1)c1cc2c(s1)CCCCC2	4422	9.8	20	2	3	2	-22
29	C/C(=N\NC(=O)c1nnn(-c2nonc2N)c1-c1cccs1)c1cccc(O)c1	4320	x	x	x	x	10	-7
30	O=C(COC(=O)c1cc(S(=O)(=O)N2CCOCC2)c(Cl)cc1Cl)NC1CC1	3249	4.5	0	9	-4	x	-3

Only ugtP null kill and Autofluor counter, for two of the compounds above:
no.	smiles	ugtP null kill	Autofluor counter
11	CC(C)(C)OC(=O)N1CCC(C(=O)N2CCC[C@H]2C(=O)O)CC1	-1	20337*
12	Cc1nc(-c2ccccc2)sc1C1(C)CC(c2cccnc2)=NO1 (stereo not given)	-21	x

Remaining list, next part
#	smiles	Autofluor counter	Sa RN4220 lethal	Mtb hypoxia inh	ugtP null kill	Mtb hypoxia inh growth	BJeLR lethal	PrP 5UTR inh
31	CC(NC(=O)/C(C#N)=C/c1cccs1)c1ccccc1 (stereo not given)	4201	2.9	8	4	6	-2	-8
32	O=C(O)CC1c2cc(C(F)(F)F)ccc2S(=O)(=O)N1C1CCCC1 (stereo not given)	x	0.5	-2	-5	-3	x	x
33	O=C(NN=C1CCCCCCC1)c1ccc(F)cc1	4286	2.8	2	-7	7	-6	-24
34	COCc1cc(C)nc(SCC(=O)Nc2ccccc2C)c1C#N	3810	4.5	1	6	-3	-2	-4
35	COc1ccc(C(=O)CC(=O)C(=O)Nc2cccc(F)c2)cc1	4024	15	9	8	-6	1	-15
36	Cc1ccc(-c2cccc(C3CC=CC4C3C(=O)N(Cc3ccccc3)C4c3cc(C)ccc3F)c2)cc1 (stereo not given)	4161	18	17	6	10	-19	-26
37	CN(C)CC/C=C1\c2ccccc2COc2ccccc21	6065	x	x	x	x	-5	7
38	CCC(OC(=O)c1cc2sccc2n1C)C(=O)NCC1CCCO1 (stereo not given)	4289	-1.9	3	1	-6	x	-13
39	CC(=O)N1CCN(Cc2nc3cc(NC(=O)c4ccccc4)ccc3n2C)CC1	4795	1.5	x	-8	x	-3	-22
40	Nc1cc(N)nc(SCCOc2ccccc2)n1	7265	3.6	5	2	1	-7	-66
41	O=C(c1ccccc1)c1ccc(C(=O)N2CCOCC2)cc1	3028	-19	x	0	x	1	-25
42	O=C(NCC(=O)N(c1ccc(F)cc1)C(C(=O)NC1CCCC1)c1cccnc1)c1cccs1 (stereo not given)	2208	5.9	6	5	3	-2	-28
43	Cc1ccc(OCc2nnc(SCC(=O)O)n2N)cc1	9404	3.6	11	-4	4	18	-6
44	Cc1ccc(-n2c(O)c(/C=N/NC(=O)c3ccncc3)c(=O)[nH]c2=O)cc1C	2968	1.2	5	10	6	-13	-28
45	O=C(CN(Cc1ccccc1F)C(=O)c1csnn1)NC1CCCCC1	5307	-2.6	-4	-1	-6	-11	-12
46	COc1ccccc1NC(=O)c1oc2ccccc2c1NC(=O)C1CC1	2791	-0.6	-3	-15	5	-18	-1
47	CCOc1ccccc1NC(=O)c1ccc2c(c1)C(=O)N(C(C)(C)C)C2=O	3317	0.2	9	2	7	-10	9
48	CN(C(=O)COc1ccccc1)c1nnc(C23CC4CC(CC(C4)C2)C3)s1	5047	1.1	3	-11	5	9	0
49	CCCC(=O)c1ccc(N2CCN(S(=O)(=O)c3ccccc3)CC2)c(F)c1	3118	9.2	x	21	x	6	7
50	Cc1ccc(-c2cn(S(=O)(=O)c3cccc([N+](=O)[O-])c3)nc2N)cc1	4473	-12	0	9	8	3	-13
51	CN(CC(=O)Nc1ccc(N2CCOCC2)cc1)C(=O)Cc1ccccc1	3684	4.2	9	6	4	x	-29
52	COc1cc(C=NNC(=S)NC2CC3CCC2C3)ccc1O (stereo not given)	x	7.8	6	-2	9	x	x
53	C(=C\c1ccccc1)/C=N/Nc1nc(N2CCCCC2)nc(N2CCCCC2)n1	3341	x	x	x	x	2	5
54	O=C(CCC(=O)NNC(=O)COc1ccccc1)NCc1ccccc1	11283	0.7	3	8	0	15	-19
55	CC(NC(=O)c1ccc(NC(=O)CC2SC(N3CCCC3)=NC2=O)cc1)c1ccccc1 (stereo not given)	x	1.7	-1	2	-1	x	-5
56	CCOC(=O)c1nnn(-c2nonc2N)c1-c1cccc2ccccc12	3958	2.3	x	-3	x	-4	-13
57	CN1CCN(c2ccc(S(=O)(=O)N3CCCCC3)cc2NC(=O)Cc2ccccc2F)CC1	2776	6.3	7	12	-2	12	-2
58	CCOC(=O)N1CCC(N2CCN(c3ccccc3)CC2)CC1	3888	-1.6	7	2	-3	3	-17
59	CC(C)[C@H](NC(N)=O)C(=O)Nc1ccc(OCc2ccccc2)cc1	4611	3.9	-6	5	-7	18	-30
60	Cc1ccc(N(CC(=O)Nc2ccc3c(c2)OCCO3)S(=O)(=O)c2c(C)noc2C)cc1	3739	4.5	4	30	11	7	-5
61	CCCCNC(=S)NN=Cc1cc(C)ccc1C	x	4.7	10	44	11	x	x
62	CCN1CCN(c2ccc(S(=O)(=O)N3CCCCC3)cc2NC(=O)COc2ccc(Cl)c(C)c2)CC1	u	0.7	1	-4	8	-3	-8
63	CNC(=S)N1CCn2cccc2C1c1cc(OC)c(OC)c(OC)c1 (stereo not given)	4704	0.3	8	0	-2	-1	-10
64	CCOc1cc(C=NNC(=O)c2nnn(-c3nonc3N)c2C)ccc1OCc1ccc(F)cc1	x	4.9	11	-7	-8	x	x
65	O=C(Nc1ccc(F)cc1F)C1CC(=O)N(Cc2ccccc2)C1 (stereo not given)	2846	3.9	11	6	5	x	-5
66	CSc1ccc(C(=O)C2CCCN(C(=O)c3ccc4c(c3)OCO4)C2)cc1 (stereo not given)	5337	-2.2	-2	1	-5	-6	-23
67	COc1cccc(NC(=O)CSc2nc3c([nH]c4ccccc43)c(=O)n2C)c1	2471	x	x	x	x	1	-10
68	COc1ccc(NC(=O)CCNC(=O)c2ccco2)cc1Cl	5267	0.6	-13	-5	0	-6	4
69	N#Cc1cc(-c2ccc(Cl)cc2)cnc1Sc1ccccc1	12401	-3.6	10	69	8	3	x
70	CS(=O)(=O)c1ccccc1C(=O)Nc1ccc(-c2nc3ccccc3[nH]2)cc1	5177	-0.1	-6	0	-4	3	-41
71	C=CCNCCCCOc1ccccc1	2597	0.3	10	-1	1	4	-9
72	COc1ccc(C(=O)Nc2nccs2)cc1OC	3397	5.4	x	12	x	-6	-18
73	CCN(CC)C(=O)Cn1cc(C(=O)C(=O)N2CCCc3ccccc32)c2ccccc21	4533	4.9	-3	3	10	x	-20
74	O=S(=O)(NCc1cccnc1)c1cc(Cl)ccc1Cl	7951	2.2	11	8	-5	2	5
75	CCOC(=O)c1ccc(NS(=O)(=O)N2CCCCCC2)cc1	4169	4.4	x	0	x	7	-7

Rewritten with two lines to a compound: 11 of the compounds above
Sequence of screens: Autofluor counter, Sa RN4220 lethal, Mtb hypoxia inh, ugtP null kill, Mtb hypoxia inh growth, BJeLR lethal, PrP 5UTR inh
[63] CNC(=S)N1CCn2cccc2C1c1cc(OC)c(OC)c(OC)c1 (stereo not given)
 : 4704, 0.3, 8, 0, -2, -1, -10
[64] CCOc1cc(C=NNC(=O)c2nnn(-c3nonc3N)c2C)ccc1OCc1ccc(F)cc1
 : x, 4.9, 11, -7, -8, x, x
[65] O=C(Nc1ccc(F)cc1F)C1CC(=O)N(Cc2ccccc2)C1 (stereo not given)
 : 2846, 3.9, 11, 6, 5, x, -5
[66] CSc1ccc(C(=O)C2CCCN(C(=O)c3ccc4c(c3)OCO4)C2)cc1 (stereo not given)
 : 5337, -2.2, -2, 1, -5, -6, -23
[67] COc1cccc(NC(=O)CSc2nc3c([nH]c4ccccc43)c(=O)n2C)c1
 : 2471, x, x, x, x, 1, -10
[68] COc1ccc(NC(=O)CCNC(=O)c2ccco2)cc1Cl
 : 5267, 0.6, -13, -5, 0, -6, 4
[69] N#Cc1cc(-c2ccc(Cl)cc2)cnc1Sc1ccccc1
 : 12401, -3.6, 10, 69, 8, 3, x
[70] CS(=O)(=O)c1ccccc1C(=O)Nc1ccc(-c2nc3ccccc3[nH]2)cc1
 : 5177, -0.1, -6, 0, -4, 3, -41
[71] C=CCNCCCCOc1ccccc1
 : 2597, 0.3, 10, -1, 1, 4, -9
[72] COc1ccc(C(=O)Nc2nccs2)cc1OC
 : 3397, 5.4, x, 12, x, -6, -18
[73] CCN(CC)C(=O)Cn1cc(C(=O)C(=O)N2CCCc3ccccc32)c2ccccc21
 : 4533, 4.9, -3, 3, 10, x, -20
